Source: PubChem (Broad Institute)
AF4-AF9 inh – inhibitors of AF4 peptide binding to AF9, primary screen, biochemical, AlphaScreen, biotin-AF4 peptide, FLAG-AF9, single point; Protein AF-9 (Homo sapiens), P42568; inhibition, % at 10 µM; 0.47% of 350,000 active; AID 651704, 2012;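 active = every replicate reaching a set inhibition limit, whatever the replicate mean, cut at about 25% in these data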;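 also: 0% = plate neutral control median and 100% = total signal loss; the record names both 10 and 1 µM as test concentration; the first replicate is given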
Target sequence (P42568 whole entry, looked up): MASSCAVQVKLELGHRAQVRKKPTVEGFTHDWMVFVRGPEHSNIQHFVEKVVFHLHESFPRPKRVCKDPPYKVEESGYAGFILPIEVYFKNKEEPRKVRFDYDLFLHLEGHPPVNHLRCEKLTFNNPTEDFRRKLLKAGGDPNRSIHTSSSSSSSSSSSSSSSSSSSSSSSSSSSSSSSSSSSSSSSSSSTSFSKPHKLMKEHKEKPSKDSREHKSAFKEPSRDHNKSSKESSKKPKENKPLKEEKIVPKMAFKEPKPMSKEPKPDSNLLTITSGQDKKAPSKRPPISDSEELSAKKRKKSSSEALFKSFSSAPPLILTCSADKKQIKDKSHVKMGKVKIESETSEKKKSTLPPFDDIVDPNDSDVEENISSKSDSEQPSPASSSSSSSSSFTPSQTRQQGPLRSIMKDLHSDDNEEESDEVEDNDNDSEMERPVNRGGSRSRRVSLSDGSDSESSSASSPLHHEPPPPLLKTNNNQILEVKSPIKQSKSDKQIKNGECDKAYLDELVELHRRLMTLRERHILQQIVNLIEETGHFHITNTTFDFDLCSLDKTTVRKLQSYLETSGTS
* = called active by the depositor; & = joins results of further samples. These rows are one share of the data. The share of hits here may be higher or lower than overall.

AF4-AF9 inh,smiles
-1.7,C[C@@H]1CCCCO[C@@H](CN(C)C(=O)Nc2ccccc2)[C@H](C)CN([C@H](C)CO)C(=O)c2cc(NC(=O)c3ccncc3)ccc2O1
-3.0,COCC#Cc1cnc2c(c1)C(=O)N([C@@H](C)CO)C[C@@H](C)[C@@H](CN(C)Cc1ccc(F)cc1)O2
-4.8,C[C@@H]1CCCCO[C@@H](CN(C)C(=O)Nc2ccc(F)cc2)[C@@H](C)CN([C@H](C)CO)C(=O)c2cc(NS(=O)(=O)c3ccc(Cl)cc3)ccc2O1
1.5,O=C(c1ccccc1F)N1CC2(C1)[C@H](c1ccccc1)[C@H](CO)N2CC1CCCC1
7.4,COc1ccc2c3c([nH]c2c1)[C@H](CO)NCC31CN(C(=O)Nc2ccc3c(c2)OCO3)C1
-4.6,COc1ccc(NC(=O)N(C)C[C@@H]2Oc3ccc(NC(=O)Cc4ccccc4)cc3CC(=O)N([C@@H](C)CO)C[C@@H]2C)cc1
-2.5,CC(=O)N1[C@@H]2c3cccc(=O)n3C[C@H]1[C@H](CO)[C@H]2C(=O)N[C@H](C)c1ccccc1
-1.9,O=C(Nc1ccc(F)cc1)N1CC(=O)N2[C@H](CO)[C@H](c3ccc(C#Cc4cccnc4)cc3)[C@@H]2C1
-4.5,CCCC(=O)N1CCC2(CC1)CN(C(=O)Nc1ccc(F)cc1)[C@H](CO)c1c2c2ccc(OC)cc2n1C
0.1,O=C(c1cnccn1)N1CC(=O)N2[C@H](CO)[C@H](c3ccc(C#CC4CC4)cc3)[C@H]2C1
1.9,O=C(Nc1ccccc1F)N1CC(=O)N2[C@H](CO)[C@@H](c3ccc(C#CC4CC4)cc3)[C@@H]2C1
-0.2,Cc1cccc(S(=O)(=O)N2C[C@@H](O)COC[C@H]3O[C@H](CC(=O)Nc4ccccc4)CC[C@@H]32)c1

Some of the entries so far, with bars between the fields:
Structure | AF4-AF9 inh
O=C(c1ccccc1F)N1CC2(C1)[C@H](c1ccccc1)[C@H](CO)N2CC1CCCC1 | 1.5
O=C(Nc1ccc(F)cc1)N1CC(=O)N2[C@H](CO)[C@H](c3ccc(C#Cc4cccnc4)cc3)[C@@H]2C1 | -1.9

Next section.
AF4-AF9 inh,smiles
1.2,N#C[C@H]1[C@H](c2ccccc2C2=CCCC2)[C@@H](CO)N1C(=O)NC1CCCCC1
9.8,CN(C)C(=O)c1ccc(-c2ccc3c(c2)[C@H]2[C@H](CCN2C(=O)C2CCCCC2)[C@@H](CO)N3C)cc1
-1.3,CN1C(=O)c2cc(NC(=O)c3cccc(F)c3)ccc2OC[C@@H]2O[C@@H](CC(=O)NCC3CC3)CC[C@@H]21
-12.1,CCC(=O)N1CCCCN2[C@H](CO)[C@H](c3ccc(C#Cc4ccccc4F)cc3)[C@H]2C1
-2.8,CCCC#Cc1ccc([C@H]2[C@@H](CO)N3C(=O)CN(C(=O)c4ccncc4)C[C@H]23)cc1
8.2,O=C(Nc1ccccc1F)N1C[C@@H]2N[C@H](C1)C2c1ccc(/C=C/c2ccccc2)cc1 (some centres not stated)
-5.7,O=C(N[C@@H]1C=C[C@H](CC(=O)N2CCc3ccccc3C2)O[C@@H]1CO)C1CC1
-10.3,O=C1CN(S(=O)(=O)c2ccccc2)C[C@@H]2[C@@H](c3ccc(C#Cc4ccccc4)cc3)[C@@H](CO)N12
-3.2,O=C(c1cccnc1)N1CC2(C1)[C@@H](c1ccccc1)[C@@H](CO)N2C(=O)c1cccnc1
0.8,C#CCN(Cc1ccco1)C(=O)c1nnc2c3ccccc3n(S(=O)(=O)c3ccc(C)cc3)c2n1
-0.4,CO[C@@H]1CN(C)C(=O)c2cc(NC(=O)Nc3ccccc3F)ccc2OC[C@@H](C)N(Cc2ccccc2F)C[C@H]1C
-4.9&-0.7,CN(C)C(=O)c1cccc(-c2ccc(C3[C@H]4CNC[C@@H]3N4C(=O)Nc3cc(F)ccc3F)cc2)c1 (some centres not stated)

Reprinted from the part before: 3 entries, then new ones.
AF4-AF9 inh,smiles
0.8,C#CCN(Cc1ccco1)C(=O)c1nnc2c3ccccc3n(S(=O)(=O)c3ccc(C)cc3)c2n1
-0.4,CO[C@@H]1CN(C)C(=O)c2cc(NC(=O)Nc3ccccc3F)ccc2OC[C@@H](C)N(Cc2ccccc2F)C[C@H]1C
-4.9&-0.7,CN(C)C(=O)c1cccc(-c2ccc(C3[C@H]4CNC[C@@H]3N4C(=O)Nc3cc(F)ccc3F)cc2)c1 (some centres not stated)
0.2,CCC(=O)N1[C@H](CO)[C@H](c2ccc(-c3ccccc3OC)cc2)[C@H]1CNC(C)=O
5.6,COc1ccc(NC(=O)N2CC(=O)N3[C@H](C2)[C@@H](c2ccc(C#CCC4CCCC4)cc2)[C@@H]3CO)cc1
1.9,O=C(C[C@H]1C=C[C@H](NC(=O)c2cccnc2)[C@@H](CO)O1)NCCN1CCCCC1
0.8,COc1ccc(S(=O)(=O)Nc2ccc3c(c2)C(=O)N(C)C[C@@H](OC)[C@H](C)CN[C@@H](C)CO3)cc1
30.4*,CN1c2ccc(C3=CCCCC3)cc2[C@H]2[C@H](CCN2C(=O)C2CCCCC2)[C@@H]1CO
3.9,CCC(=O)NC[C@@H]1[C@@H](c2ccc(C3=CCCC3)cc2)[C@@H](CO)N1CC1CCCC1
-2.7,CCC(=O)N1CC(=O)N2[C@H](CO)[C@H](c3ccc(-c4ccncc4)cc3)[C@@H]2C1
0.5,CC(C)NC(=O)N(C)C[C@H]1OCCCC[C@H](C)Oc2ccc(NC(=O)Nc3ccc(C(F)(F)F)cc3)cc2C(=O)N([C@@H](C)CO)C[C@H]1C
14.3,C[C@@H]1CN([C@H](C)CO)C(=O)c2c(c3ccccc3n2C)-c2ccccc2CO[C@@H]1CN(C)Cc1ccc2c(c1)OCO2
-5.8,CO[C@H]1CN(C)C(=O)c2cc(NC(=O)NC3CCCC3)ccc2OC[C@@H](C)NC[C@@H]1C
-0.5,C[C@@H]1CN([C@H](C)CO)C(=O)c2cc(NC(=O)Cc3ccccc3)ccc2O[C@H]1CN(C)C(=O)Nc1ccc(C(F)(F)F)cc1
0.3,COCC(=O)Nc1ccc2c(c1)C(=O)N(C)C[C@H](OC)[C@@H](C)CN(C(=O)c1ccccc1F)[C@H](C)CO2
-5.7,O=C(C[C@H]1C=C[C@H](NC(=O)C2CC2)[C@H](CO)O1)NCCc1cscn1
-1.5,O=C1CN(S(=O)(=O)Cc2ccccc2)C[C@@H]2[C@@H](c3ccc(C#Cc4cccc(F)c4)cc3)[C@@H](CO)N12
-1.8,O=C(O)C[C@H]1C[C@H]2c3cc(NS(=O)(=O)c4ccccc4)ccc3O[C@H]2[C@@H](CO)O1
-3.4,C[C@@H]1CN([C@@H](C)CO)C(=O)c2cc(NC(=O)CCCN(C)C)ccc2O[C@H]1CN(C)C(=O)NC1CCCCC1
4.1,O=C(Cc1ccccn1)N1CC(=O)N2[C@H](CO)[C@@H](c3ccc(C#CC4CCCC4)cc3)[C@@H]2C1
-7.8,O=C(C1CC1)N1CC[C@@H]2[C@H]1c1cc(-c3cccc(F)c3)ccc1N[C@@H]2CO
-2.5,CS(=O)(=O)N1CC(=O)N2[C@@H](CO)[C@H](c3ccc(C#Cc4ccccc4)cc3)[C@@H]2C1
4.7,COc1ccc2c3c([nH]c2c1)[C@@H](CO)N(C(=O)NC(C)C)CC31CCN(C(=O)C2CCCCC2)CC1
-9.1,CN1[C@@H]2c3ccc(-c4cccc(F)c4)c(=O)n3C[C@@H]2[C@@H](CO)[C@@H]1C(=O)NC1CCCC1
3.9,CCNC(=O)[C@H]1[C@H](CO)[C@H]2Cn3c(ccc(-c4ccc(F)cc4)c3=O)[C@H]2N1Cc1ccccc1F
0.2,C/C=C/c1ccc([C@H]2[C@@H](CO)N(C(=O)CC)[C@@H]2CNCC2CCCCC2)cc1
1.7,C[C@@H]1CN([C@@H](C)CO)C(=O)c2cccc(NS(C)(=O)=O)c2O[C@H]1CN(C)C(=O)Nc1cccc2ccccc12
5.2,C[C@@H]1CN([C@H](C)CO)C(=O)Cc2cc(NC(=O)c3ccncc3)ccc2O[C@H]1CN(C)C(=O)NC1CCCCC1
1.0,C[C@H]1CCCCO[C@H](CN(C)C(=O)Nc2ccccc2)[C@@H](C)CN([C@@H](C)CO)C(=O)c2cc(NC(=O)Cc3ccccc3)ccc2O1
1.2,O=C(c1cnccn1)N1CC(=O)N2[C@@H](CO)[C@@H](c3ccc(C#CCC4CCCC4)cc3)[C@@H]2C1
-3.2,CN(C)CC(=O)N[C@H]1CC[C@@H](CCNC(=O)C2CC2)O[C@H]1CO
2.0,N#C[C@H]1[C@@H](c2ccc(C#CC3CCCC3)cc2)[C@H](CO)N1C(=O)c1cccc(F)c1
8.3,O=C(c1ccc(F)cc1)N1CC(=O)N2[C@H](CO)[C@@H](c3ccc(C#CC4CCCC4)cc3)[C@H]2C1
-7.4,C[C@@H]1CCCCO[C@@H](CN(C)S(=O)(=O)c2ccc(F)cc2)[C@@H](C)CN([C@H](C)CO)C(=O)c2cc(NC(=O)Nc3ccc(C(F)(F)F)cc3)ccc2O1
4.2,C[C@H]1CCCCO[C@@H](CN(C)C)[C@@H](C)CN([C@@H](C)CO)C(=O)c2cc(NC(=O)Nc3ccccc3)ccc2O1
12.4,COC(=O)C[C@H]1C[C@@H]2c3cc(NC(=O)Nc4ccc(C(F)(F)F)cc4)ccc3O[C@@H]2[C@@H](CO)O1
4.2,CCCC#Cc1ccc([C@@H]2[C@@H](CO)N3C(=O)CN(S(=O)(=O)Cc4ccccc4)C[C@H]23)cc1
-1.9,CCC(=O)N1C[C@H](C)[C@H](OC)CN(C)C(=O)c2ccc(NC(=O)COC)cc2OC[C@H]1C
-1.8,CN(C)C(=O)[C@@H]1[C@@H](CO)[C@@H]2Cn3c(cccc3=O)[C@@H]2N1CC1CCCCC1
0.0,C[C@H](CO)N1C[C@H](C)[C@@H](CN(C)S(=O)(=O)c2ccc(Cl)cc2)Oc2ccc(NC(=O)C3CCCCC3)cc2C1=O
-2.4,O=S(=O)(c1ccccc1)N1C[C@@H]2N[C@H](C1)C2c1ccc(-c2ccccc2)cc1 (some centres not stated)
4.0,COc1ccc2c3c([nH]c2c1)[C@@H](CO)N(C(=O)Nc1ccc(F)cc1)CC31CCN(S(=O)(=O)c2cn(C)cn2)CC1
1.7,CC(C)C#Cc1ccc([C@H]2[C@H](CO)N3C(=O)CN(C(=O)c4ccc5c(c4)OCO5)C[C@@H]23)cc1
17.6&2.3,COc1ccccc1S(=O)(=O)N1[C@@H]2CNC[C@H]1C2c1ccc(/C=C/c2ccccc2)cc1 (some centres not stated)
3.8,O=C(C1CCOCC1)N1CC(=O)N2[C@H](C1)[C@H](c1ccc(C#CC3CCCC3)cc1)[C@@H]2CO
-2.2,CC=Cc1ccc2n(c1=O)C[C@H]1[C@H](CO)[C@@H](C(=O)NCCC)[C@@H]2N1S(=O)(=O)c1cn(C)cn1 (mixture of isomers)
12.4,C[C@@H]1CCCCO[C@H](CN(C)Cc2ccccc2)[C@H](C)CN([C@@H](C)CO)C(=O)c2cc(N(C)C)ccc2O1
-4.6,CC(C)NC(=O)N(C)C[C@@H]1Oc2ccc(NC(=O)C3CC3)cc2CC(=O)N([C@H](C)CO)C[C@@H]1C
-3.4,O=C(NCC[C@@H]1CC[C@H](NS(=O)(=O)Cc2ccccc2)[C@@H](CO)O1)C1CCC1
3.4,C[C@@H]1CCCCO[C@@H](CN(C)Cc2ccc3c(c2)OCO3)[C@H](C)CN([C@@H](C)CO)C(=O)c2cc(NS(=O)(=O)c3ccc(Cl)cc3)ccc2O1
19.8,C[C@H](CO)N1C[C@H](C)[C@H](CN(C)Cc2ccc3c(c2)OCO3)OCCCC[C@H](C)Oc2ccc(NS(=O)(=O)c3ccc(Cl)cc3)cc2C1=O
2.0,CCS(=O)(=O)N1CCC2(CC1)CN[C@@H](CO)c1c2c2ccc(OC)cc2n1C
3.0,CO[C@@H]1CN(C)C(=O)c2ccc(NC(=O)Nc3ccccc3Cl)cc2OC[C@@H](C)N(C(C)=O)C[C@H]1C
-1.7,O=C(C[C@@H]1C=C[C@@H](NC(=O)Nc2ccc(C(F)(F)F)cc2)[C@@H](CO)O1)NCc1cccc(F)c1
-1.2,O=C(Nc1cc(F)ccc1F)N[C@@H]1CC[C@@H](CCn2cc(C3CCCC3)nn2)O[C@@H]1CO
1.7,C/C=C/c1ccc([C@@H]2[C@H](CO)N(S(C)(=O)=O)[C@H]2CN(CC)C(=O)CC)cc1
-3.4,COc1ccc(C#Cc2ccc([C@@H]3[C@@H](CO)N4C(=O)CN(C(=O)c5ccc(F)cc5)C[C@@H]34)cc2)cc1
-8.9,CCCNC(=O)[C@H]1[C@H](CO)[C@H]2Cn3c(cccc3=O)[C@H]2N1Cc1cccc(F)c1
-1.7,COCC(=O)N1CC2(CCN(C(=O)CN3CCOCC3)CC2)c2c([nH]c3cc(OC)ccc23)[C@H]1CO
-1.1,O=C(C[C@H]1CC[C@@H](NS(=O)(=O)c2ccccc2F)[C@@H](CO)O1)NCCCN1CCOCC1
9.8,COc1ccc(CN(C)C[C@H]2OCCCC[C@H](C)Oc3ccc(NC(=O)c4ccccc4)cc3C(=O)N([C@@H](C)CO)C[C@@H]2C)cc1
-0.4,CN(C)C(=O)C[C@H]1C=C[C@@H](NC(=O)C2CCOCC2)[C@H](CO)O1
4.5,O=C(c1ccccn1)N1CC(=O)N2[C@H](C1)[C@H](c1ccc(C#CCc3ccccc3)cc1)[C@@H]2CO
4.3,Cc1noc(C)c1NC(=O)Nc1ccc2c(c1)C(=O)N([C@H](C)CO)C[C@@H](C)[C@@H](CN(C)S(=O)(=O)c1ccc(F)cc1)OCCCC[C@@H](C)O2

An excerpt from above in order of their number in AF4-AF9 inh, ascending:
AF4-AF9 inh,smiles
-1.7,COCC(=O)N1CC2(CCN(C(=O)CN3CCOCC3)CC2)c2c([nH]c3cc(OC)ccc23)[C@H]1CO
-0.4,CN(C)C(=O)C[C@H]1C=C[C@@H](NC(=O)C2CCOCC2)[C@H](CO)O1
4.5,O=C(c1ccccn1)N1CC(=O)N2[C@H](C1)[C@H](c1ccc(C#CCc3ccccc3)cc1)[C@@H]2CO
